# Mtb H37Rv – Mycobacterium tuberculosis H37Rv growth inhibition, putative kinase inhibitor library, confirmatory dose response (AID 2842) | M. tuberculosis H37Rv growth inhibition; higher % means a stronger effect; some inactives read as strong as hits | 5.2% of 24,000 active | inhibition, % at 10 µg/mL; hits with a dose series show IC90 in µg/mL;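 active = confirmed in a dose series; about a fifth of its hits are not listed in these tables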;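 also: bacteria incubated one week before Alamar blue readout; 0% = bacteria only wells and 100% = bacteria with high antibiotic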
# Active calls of the source: *. These rows are one share of the data; the hit share may differ from the screen's.
SMILES,Mtb H37Rv
O=C(CN1C(=O)S/C(=C\c2ccccc2)C1=O)NCCN1C(=O)CSC1=O,-9.9%
O=C(O)CCN1C(=O)/C(=C/c2cc([N+](=O)[O-])ccc2OCc2ccccc2Cl)SC1=S,-13.9%

# Screening results: PubChem BioAssay, Southern Research Institute
